Source: PubChem (several laboratories)
Bfl-1 A1 inh – inhibitors of the anti-apoptotic protein A1, read as caspase activation; MEF A1-2A-BIM cells, Caspase-Glo 3/7 luminescence, 3 h; percent of clofoctol response, vehicle zero; AID 2462; caspase activation, % (concentration not given with the values); 330,000 tested, 0.066% active;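 active = over half of replicate activation scores above 10%, or exactly half above 10 with the replicate mean above 10; inconclusive = replicate mean below 10 yet half the replicates above 10; inactive = over half of replicates below 10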;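 note: wells of about 30 µL received 50 nL stock; many hits fall short of the cut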
ALR H2O2 inh – human ALR oxidase inhibition via reduced H2O2. P55789. purified ALR, DTT oxidation, H2O2 HRP-luminol luminescence. inhibition, % (no concentration beside the values). 290,000 tested, 3.8% active. AID 485317;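 active = mean and each replicate at 75% or more; inconclusive = only one of the two met; inactive = neither met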;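 note: stock transfer was 7.5 nL into about 7.5 µL; 0% = neutral wells and 100% = wells with inactivated enzyme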
Target sequence (P55789 whole entry, looked up): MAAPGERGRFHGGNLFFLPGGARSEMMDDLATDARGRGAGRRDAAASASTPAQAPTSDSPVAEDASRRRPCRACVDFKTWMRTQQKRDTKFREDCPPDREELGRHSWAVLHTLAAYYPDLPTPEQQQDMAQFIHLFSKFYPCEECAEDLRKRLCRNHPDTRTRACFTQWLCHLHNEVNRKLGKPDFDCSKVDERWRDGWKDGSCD
Calb FLC – affects C. albicans growth with fluconazole | C. albicans CaCi-2 (fluconazole-resistant clinical isolate) + fluconazole, Alamar Blue growth, 48 h | growth inhibition, % (concentration not given with the values) | 300,000 tested, 0.57% active | AID 1979;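 active = most replicates above 75%; inconclusive = exactly half above 75%; inactive = most below 75%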;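 note: all wells also contain fluconazole at 8 µg/ml as a sub-toxic cotreatment; 0% = median of DMSO wells and 100% = median of geldanamycin control wells; wells of about 8 µL received 7.5 nL stock; the first replicate is given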
T cruzi repl – T. cruzi replication inhibition. T. cruzi beta-gal in NIH3T3, luminescence, 90 h. inhibition, % (no concentration beside the values). 300,000 tested, 1.4% active. AID 1885;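 active = mean inhibition across valid replicates above about 55%, limit read from the data; inconclusive = mean below that limit but half or more replicates reach it; inactive = mean below it, under half of replicates reach it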;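 note: signal also drops with host cell toxicity which is not excluded here; 0% = plate median of DMSO wells and 100% = zero luminescence signal; higher percent means less beta-gal luminescence so fewer parasites; stock transfer was 50 nL into about 50 µL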
LANA-H2B inh – blocks KSHV LANA binding to histone H2A/H2B; Q9QR71; cell-free LANA-H2A/H2B peptide, fluorescence polarization; inhibition, % (concentration not given with the values); 320,000 tested, 0.6% active; in the data active = inhibition mostly above about 10%, no sharp cut-off; inactive = mostly below about 6.7%;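 note: stock transfer was 7.5 nL into about 10 µL; 0% = median of vehicle wells and 100% = median of positive control wells; one replicate is shown; the record names a cut of 25% in any replicate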
Beta2AR agonist – activates human beta-2 adrenergic receptor causing internalization; P07550; Am2.2-beta2AR cells, FAP receptor internalization, flow cytometry; reference of the scale not given here; response, % (no concentration beside the values); 340,000 tested, 0.43% active; AID 504454;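 active = response above a set limit, near 3 SD of response in nonfluorescent compounds, cut at about 42% in these data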;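 note: stock transfer was 100 nL into about 11 µL; a reference agonist was the positive control; negative values mostly stem from fluorescent compounds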
Target sequence (P07550 whole entry, looked up): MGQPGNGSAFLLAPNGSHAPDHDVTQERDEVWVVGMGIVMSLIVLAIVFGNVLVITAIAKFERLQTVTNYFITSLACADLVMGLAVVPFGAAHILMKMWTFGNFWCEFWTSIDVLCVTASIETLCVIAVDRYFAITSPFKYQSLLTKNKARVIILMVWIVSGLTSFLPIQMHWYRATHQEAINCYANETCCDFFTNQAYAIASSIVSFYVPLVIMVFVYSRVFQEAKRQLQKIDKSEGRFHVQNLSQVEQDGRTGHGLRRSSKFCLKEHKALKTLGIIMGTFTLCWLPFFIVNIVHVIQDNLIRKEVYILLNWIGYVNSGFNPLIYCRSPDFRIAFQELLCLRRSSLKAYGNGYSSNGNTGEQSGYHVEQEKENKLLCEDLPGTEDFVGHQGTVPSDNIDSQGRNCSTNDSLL
rRNA inh HTS – inhibitors of bacterial rRNA selective over humanized ribosomes; E. coli WT GFP vs humanized-ribosome RFP mutants, fluorescence, 24 h; active compounds read low; DMSO median 0, no signal -100; GFP signal change (wild-type ribosome), % (no concentration beside the values); 350,000 tested, 1.6% active; AID 720706;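 active = significant combined selectivity score with lowered wild-type GFP, culture density cut under 30%, mutant RFP and density less affected; inactive = any of these conditions unmet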; note: one replicate is shown; some compounds called inactive have numbers as strong as hits
Beta cell apopt – beta cell apoptosis inhibition | INS-1E cytokine-induced death, ATP luminescence, 48 h; percent of positive-control rescue, neutral wells zero | protection from apoptosis, % (test concentration not listed) | 300,000 tested, 0.8% active;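 active = all replicates at 75% or more, or half of them and the mean; inconclusive = half reach 75% but not the mean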;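 note: 0% = cytokine-treated negative control wells and 100% = positive control rescue; higher means more ATP so stronger rescue from cytokine killing; wells of about 40 µL received 100 nL stock; the first replicate is given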
rRNA inh HTS OD600 – second read-out of rRNA inh HTS, no call of its own (marks repeat the call); OD600 change, %; measured here: OD600 growth;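 optical density of the mix in the first replicate; 0 = DMSO median and -100 = no signal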
rRNA inh HTS RFP – further read-out of rRNA inh HTS, marked with its call; RFP signal change, %; measured here: RFP humanized mutant strains;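 first replicate; 0 = DMSO median and -100 = no signal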
Numbers without * were called inactive; ? = inconclusive; . = not tested or not shown. A portion of the library, so the mix of outcomes need not match the whole.

SMILES	Bfl-1 A1 inh	ALR H2O2 inh	Calb FLC	T cruzi repl	LANA-H2B inh	Beta2AR agonist	rRNA inh HTS	rRNA inh HTS OD600	rRNA inh HTS RFP	Beta cell apopt
CC1CCCCN1Cc1ccc(-c2nn[nH]n2)cc1 (configuration not stated)	1.2	6	-11	-14	-2.5	6	.	.	.	-2
COc1ccc(C(=O)NNC(=O)C2CCN(S(=O)(=O)c3ccc(C)cc3)CC2)cc1	1.7	-5	9	0	-0.9	0	-8	-13	-1.7	-3
COc1cccc(/C=C/C(=O)NNC(=O)c2cc(C)oc2C)c1	-0.7	7	3	-2	-1.2	-5	-5	-9	-0.5	3
Cc1nc2ccc(Br)cc2c(-c2ccccc2)c1C(=O)O	1.1	-10	0	-8	0.8	-2	7	-2	2.0	-2
COc1ccc(/C=C2\SC(=S)N(CCCC(=O)N3CCOCC3)C2=O)cc1	0.8	.	6	-10	2.1	-2	-12	-11	-2.1	-15
COc1ccc(N=C2NN=C(c3ccc4c(c3)OCCO4)CS2)cc1	0.0	.	-10	1	-5.3	1	.	.	.	-9
Cc1ccc(S(=O)(=O)NCCC(=O)Nc2cccc(S(N)(=O)=O)c2)cc1C	-0.5	0	-7	10	2.1	6	-2	2	-2.1	-4
CC1Nc2nc(NC(=O)C(C)(C)C)[nH]c(=O)c2N(C)C1C (configuration not stated)	-0.9	5	-5	-11	-2.7	6	11	14	5.8	-11
CC1CCC2(CC1)NC(=O)N(Cc1nnc(-c3cccs3)o1)C2=O (configuration not stated)	0.6	-3	1	-6	-0.8	-2	-3	-2	-0.9	-4
Cc1noc(C)c1C(=O)N1CCN(Cc2ccc3c(c2)OCO3)CC1	1.4	22	-9	-6	0.7	9	11	2	-1.3	-10
O=C(CCc1ccccc1)NNC(=O)c1ccccn1	-1.8	-28	-10	-3	1.6	-9	-32	-36	-7.5	13
COc1ccc(C2c3c(oc4ccccc4c3=O)C(=O)N2c2ccccn2)cc1OC (configuration not stated)	0.3	-15	-16	13	0.2	-18	2	9	-0.9	0
Cc1ccc(NC(=O)Cn2c(=O)oc3ccccc32)cc1	0.7	-10	5	-9	-1.3	-8	11	11	0.2	-2
CN1CCN(c2ccccc2NC(=O)c2ccc(-c3ccccc3)cc2)CC1	-0.3	-10	2	6	1.3	4	.	.	.	11
O=C(COC(=O)c1cc(S(=O)(=O)N2CCOCC2)ccc1O)NCCc1ccccc1	0.4	21	-4	-2	4.1	5	.	.	.	-2
CC1=NN(c2nc(-c3ccc(C)cc3)cs2)C(=O)C1N=Nc1cccc(O)c1 (configuration not stated)	1.2	-3	46	18	1.0	21	2	17	0.0	4
CC1CCN(CC(=O)Nc2nn(-c3ccccc3)nc2C(N)=O)CC1	0.5	-12	?	-7	0.8	-3	.	.	.	-11
CCc1c(C)sc(NC(=O)c2cc(-c3ccc(OC)c(OC)c3)on2)c1C#N	-0.1	-10	-10	3	2.9	-1	.	.	.	11
CCC(C)N1C(=S)SC(C)(C)C1N(O)C(=O)NC1CCCCC1 (configuration not stated)	0.5	-9	1	2	1.3	-2	-15	-32	-1.3	-1
CCn1c(COC(=O)CNC(=O)c2ccccc2)nc2cc(S(=O)(=O)N(C)C)ccc21	-0.4	-3	7	2	3.3	0	3	5	0.5	-6
O=S1OCCN1c1ccccc1 (configuration not stated)	0.7	22	0	-17	4.1	-5	24	16	0.4	.
Cc1cc(C)cc(NC(=O)CCC(=O)Nc2nnc(C(F)(F)F)s2)c1	0.9	.	-1	-18	-1.0	3	-1	-5	-1.2	0
CCCOc1ccccc1NS(=O)(=O)c1ccc2[nH]c(=O)[nH]c2c1	0.3	-22	-6	23	-3.1	2	3	3	-3.4	-4
CCOc1ccc(Cl)cc1S(=O)(=O)N1CCC(C(=O)NCc2cccnc2)CC1	-0.6	-1	9	6	1.5	-2	-5	-4	-1.4	-8
CN(C)CCN(Cc1ccccc1)C(=O)[C@H](Cc1ccccc1)N1C(=O)c2ccccc2C1=O	-0.7	.	0	-2	4.1	2	5	5	5.6	-2
FC(F)(F)c1cc(-c2ccco2)nc(-n2nnc3ccccc32)n1	0.0	-10	9	22	0.0	-6	.	.	.	5
CN1C(=O)C(O)(c2sc(N)nc2-c2ccccc2)c2ccccc21 (configuration not stated)	-1.4	-1	2	-1	0.5	8	.	.	.	-3
CCN1C(=O)[C@H]2[C@@H](c3ccc(-c4ccccc4)cc3)N[C@@](CC(C)C)(C(=O)OC)[C@H]2C1=O	-0.2	0	-6	9	5.6	-2	4	7	-3.5	10
CCN(CC)S(=O)(=O)c1ccc2[nH]c(=O)cc(C(=O)Nc3ccccc3N3CCCC3)c2c1	-0.6	17	0	0	2.0	3	0	-9	3.6	.
Cn1c(C(=O)N2CCCC(C(=O)NCc3ccc4c(c3)OCO4)C2)cc2sccc21 (configuration not stated)	-0.5	-12	-7	10	0.7	-4	1	-23	-2.2	2
Cc1noc(C)c1COC(=O)C(c1ccccc1)c1ccccc1	0.1	5	34	-7	2.1	0	-28	-28	-5.6	-5
COc1ccc(-c2nnc(SCc3ncc(-c4ccccc4)o3)o2)cc1	-0.5	.	-11	15	-0.3	-10	.	.	.	-17
Cc1ccc(N2C(=O)NC(NC(=O)C(C)(C)C)(C(F)(F)F)C2=O)cc1 (configuration not stated)	0.0	-11	-5	-4	-2.5	0	.	.	.	1
O=C(CSc1ccc(-c2cccc([N+](=O)[O-])c2)nn1)N1CCCCCC1	0.2	3	26	11	-1.3	3	-1	1	-4.2	6
COc1ccc(C2Nc3ccccc3C(=O)N2Cc2ccccc2)cc1Cn1nnc2ccccc21 (configuration not stated)	0.2	-4	0	16	-2.8	1	-12	-1	-1.6	6
COc1cc([N+](=O)[O-])ccc1NC(=O)Oc1ccc(NC(C)=O)cc1	-0.7	-25	-2	-12	-6.4	4	12	12	1.2	-7
O=C(Cn1cnc2c(nnn2-c2cccc(Cl)c2)c1=O)N1CCCC1	0.0	-2	-1	17	2.0	3	.	.	.	-8
CC(c1cccs1)N(Cc1ccco1)C(=S)Nc1ccccc1Cl (configuration not stated)	-0.3	-1	-19	-11	-1.8	3	-20*	-0.6*	5.4*	-7
CC(=O)Nc1ccc(Oc2cc(NC(C)=O)cc([N+](=O)[O-])c2)cc1	1.1	-3	-15	22	1.2	6	13	15	3.2	-3
CN1C(=S)N(c2ccccc2)C(=O)/C1=C/c1cccs1	0.0	-3	0	-7	-1.2	-2	.	.	.	3
CN1CCN(C(=O)CCc2ncc(C(F)(F)F)cc2Cl)CC1	-0.4	.	-4	20	2.0	-2	11	18	4.8	-6
COC(=O)CC1c2cc(OC)c(OC)cc2CC(=O)c2cc(OC)c(OC)cc21 (configuration not stated)	-0.6	-146	7	0	-1.0	2	15	8	7.7	-7
NC(=O)NCCN1CCN(c2ncc(C(F)(F)F)cc2Cl)CC1	1.0	-11	-4	15	7.9	-5	14	8	-0.5	6
CCc1nnc(NC(=O)CSc2nnc(-c3ccc(O)cc3)n2C)s1	0.4	3	-6	-2	1.3	1	17	18	-1.8	-7
CCOC(=O)N/N=C(/C)c1cccc(-n2cnnn2)c1	0.3	-5	-1	-3	6.2	-15	13	11	-0.2	2
CS(=O)(=O)N1CCN(c2ccccc2NC(=O)c2ccco2)CC1	0.8	3	8	3	-1.3	-16	5	4	0.9	.
NC(=O)C1(N2CCCCC2)CCN(CC(=O)Nc2ccc(Oc3ccccc3)cc2)CC1	0.8	-2	-1	10	-1.9	-14	.	.	.	2
Cc1cccc(N(CC(=O)Nc2ccccc2F)S(C)(=O)=O)c1	0.3	-6	-3	6	0.7	5	.	.	.	2
CC(=O)c1c(N2CCOCC2)nc(=S)n(-c2ccccc2)c1C	-0.5	3	3	-11	-8.6	3	.	.	.	-5
COC(=O)c1ccc(CNS(=O)(=O)c2ccc3ccccc3c2)cc1	-0.1	0	5	-1	4.8	5	-7	-18	5.0	-3
Cc1ccc(Nc2cc(C)nc3nnnn23)cc1	-0.1	-11	-10	-3	1.0	-15	.	.	.	-1
CCC(C)[C@H](NC(=O)[C@H](Cc1ccccc1)n1c(=O)[nH]c2ccccc2c1=O)C(=O)N1CCC[C@@H]1C(=O)O (some centres not stated)	0.1	-4	-1	-5	-8.8	4	.	.	.	1
CCOc1ccc(CN(CCC#N)C(=S)NC(=O)c2ccccc2)cc1	-0.6	4	0	4	5.8	3	.	.	.	19
C=CCNC(=O)/C(=C\c1ccco1)NC(=O)c1ccco1	-0.5	.	1	-10	0.2	-7	18	8	3.4	-6
CN(CC(=O)Nc1ccccc1Cl)CC(=O)N(C)c1c(N)n(Cc2ccccc2)c(=O)[nH]c1=O	-0.9	.	.	.	-4.8	1	1	19	1.8	0
OC[C@H](O)[C@H](O)[C@@H](O)[C@@H](O)[C@@H]1SC(c2ccccc2)=NN1c1ccccc1	0.1	64	-7	15	-1.0	-11	5	-8	0.6	-7
